From PubChem BioAssay
liver stage = exo-erythrocytic parasite development inhibition – imaging, Malaria Box, P. yoelii, HepG2-A16-CD81EGFP, dose response (AID 602156) | P. yoelii liver stage in HepG2-A16-CD81EGFP, imaging; first-round cut-off not given here | calls after a first round at 10 µM; hits with a dose series show IC50 in µM | 4.8% of 5,700 active; in the data active means a potency from the dose series;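 further: infected cells exposed to compound for 48 hours before fixation; stained parasite area by imaging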
Starred values were filed as active, the others as inactive; i = inactive. This is a subset; the hit share may differ from the screen's.

SMILES	liver stage
Cc1n(-c2ccccc2)c2c([n+]1C)C(=O)c1ccccc1C2=O	i
COc1ccc(NC(=O)COc2ccccc2C(C)C)c(OC)c1	i
Cc1cc2c(cc1C)NC(c1ccc(Cl)c(F)c1)C1=C(CC(C)(C)CC1=O)N2 (centres undefined)	i
Cn1nc(C(F)(F)F)c(C(=O)Nc2cccc(C(F)(F)F)c2)c1SCc1ccc(Cl)cc1	i
COc1ccccc1C(=O)N1CCN(Cc2ccc3ccccc3c2)CC1	i
CN(C)c1cc[n+](CC(=O)c2ccc(Cl)cc2)cc1	i
Cn1nc(C(F)(F)F)c(C(=O)Nc2ccc(Cl)cc2)c1Sc1ccc(Cl)cc1	i
COc1ccc(C2=CC(=Cc3cccc(OC)c3OC)C(=O)O2)cc1OC	i
COc1ccc(Cn2c(C)nc3cc(NC(=O)Nc4ccccc4)c(C)nc32)cc1	i
CCCOC(=O)C1=C(C)NC2=C(C(=O)CC(c3ccc(OC)cc3)C2)C1c1ccccc1Cl (centres undefined)	i
COC(=O)[C@@H]1C[C@@H](NC(=O)c2ccccc2F)CN1CC(c1ccccc1)c1ccccc1	i
COc1ccc(C2CC(=O)C3=C(C2)NC(C)=C(C(=O)OC(C)C)C3c2ccc(F)cc2)cc1 (centres undefined)	i
COc1ccccc1CN1CCc2nc(-c3cnccn3)sc2C1	i
COc1cc(C(=O)NC(C)C)ccc1OC1CCN(CC(c2ccccc2)c2ccccc2)CC1	i
Oc1c(C(Nc2ccccn2)c2ccc(Br)cc2)ccc2cccnc12 (centres undefined)	i
N#Cc1c(N)nc2sc(C(=O)c3ccc(F)cc3)c(N)c2c1-c1ccccc1	i
Cc1cc2ncn(N=Cc3cccnc3)c2cc1C	i
O=[N+]([O-])c1ccc(S(=O)(=O)N2CCN(C(=S)NCc3ccccc3)CC2)cc1	i
CCCn1cc(SCC(=O)NCc2ccco2)c2ccccc21	i
CN1C=CC=CC1=CC=C1C=Nc2ccccc21	i
CCOC(=O)c1ccc(N(C(=O)CSCC(=O)Nc2cc(C)on2)C(C(=O)NC2CCCCC2)c2ccc(O)c(O)c2)cc1 (centres undefined)	i
CN1CCC(N2CCC(Oc3cccc(C(=O)NCCC4=CCCCC4)c3)CC2)CC1	i
CCOC(=O)C1=C(C)NC2=C(C(=O)CC(c3ccc(OC)c(OC)c3)C2)C1c1ccc(F)cc1 (centres undefined)	i
COc1cccc(N2CCN(CCNCCOc3ccccc3)[C@@H](Cc3ccccc3)C2)c1	i
O=C1C2C(C(=O)N1c1ccccc1F)C1(c3ccccc3)C(=O)C2(c2ccccc2)C(c2ccccc2)=C1c1ccccc1 (centres undefined)	i
CCOc1ccc2nc(C)cc(Nc3ccc(OCc4ccccc4Cl)cc3)c2c1	i
O=C(Nc1ccc(C23CC4CC(CC(c5ccccc5)(C4)C2)C3)cc1)c1cccs1	i
COc1cc([C@@H]2OC[C@@H]3[C@H]2CO[C@H]3c2cc(OC)c(O[C@@H]3O[C@H](CO)[C@@H](O)[C@H](O)[C@H]3O)c(OC)c2)cc(OC)c1O	i
O=S(=O)(NCCCCNc1ccnc2cc(Cl)ccc12)c1ccc(F)cc1	i
COC(=O)C1CCCCN1S(=O)(=O)c1ccc(C)cc1 (centres undefined)	i
CC1CN(C(=O)CCCSc2nnc(Cc3ccccc3)n2-c2ccc(Cl)c(Cl)c2)CC(C)O1 (centres undefined)	i
CCCCN1Cc2ccc(C(N)=O)cc2N=C1C1CC1	i
N#Cc1c(N)nc(SCC(=O)c2ccc(Br)cc2)c(C#N)c1-c1ccccc1	i
CCN1C(=Cc2ccc3cc(OC)ccc3[n+]2CC)Sc2cc(C)ccc21	i
COc1ccc(NC(=O)c2c(Cl)nc(Cl)c([N+](=O)[O-])c2C)cc1	i
Cc1n(N)c2ccccc2[n+]1CC(=O)c1ccc([N+](=O)[O-])cc1	i
O=C(O)c1ccc(C=NNc2ccc([N+](=O)[O-])cc2)cc1	i
COc1ccc(CCNc2nc(NCCC3CCCN3C)ncc2C(=O)NCc2ccccc2)cc1OC (centres undefined)	i
CN1/C(=C\C=C\c2oc3ccccc3[n+]2C)Oc2ccccc21	i
NCCC(=O)N1CC(c2ccccc2)c2ccccc2C1CN1CCCCC1 (centres undefined)	i

In the list so far, these have an aryl methoxy group.
SMILES	liver stage
COc1ccc(NC(=O)COc2ccccc2C(C)C)c(OC)c1	i
COc1ccccc1C(=O)N1CCN(Cc2ccc3ccccc3c2)CC1	i
COc1ccc(C2=CC(=Cc3cccc(OC)c3OC)C(=O)O2)cc1OC	i
COc1ccc(Cn2c(C)nc3cc(NC(=O)Nc4ccccc4)c(C)nc32)cc1	i
CCCOC(=O)C1=C(C)NC2=C(C(=O)CC(c3ccc(OC)cc3)C2)C1c1ccccc1Cl (centres undefined)	i
COc1ccc(C2CC(=O)C3=C(C2)NC(C)=C(C(=O)OC(C)C)C3c2ccc(F)cc2)cc1 (centres undefined)	i
COc1ccccc1CN1CCc2nc(-c3cnccn3)sc2C1	i
COc1cc(C(=O)NC(C)C)ccc1OC1CCN(CC(c2ccccc2)c2ccccc2)CC1	i
CCOC(=O)C1=C(C)NC2=C(C(=O)CC(c3ccc(OC)c(OC)c3)C2)C1c1ccc(F)cc1 (centres undefined)	i
COc1cccc(N2CCN(CCNCCOc3ccccc3)[C@@H](Cc3ccccc3)C2)c1	i
COc1cc([C@@H]2OC[C@@H]3[C@H]2CO[C@H]3c2cc(OC)c(O[C@@H]3O[C@H](CO)[C@@H](O)[C@H](O)[C@H]3O)c(OC)c2)cc(OC)c1O	i
CCN1C(=Cc2ccc3cc(OC)ccc3[n+]2CC)Sc2cc(C)ccc21	i
COc1ccc(NC(=O)c2c(Cl)nc(Cl)c([N+](=O)[O-])c2C)cc1	i
COc1ccc(CCNc2nc(NCCC3CCCN3C)ncc2C(=O)NCc2ccccc2)cc1OC (centres undefined)	i

Other structures follow.
SMILES	liver stage
CCC(c1nc2ccccc2c(=O)n1-c1ccccc1OC)N(CCc1ccccc1)C(=O)c1cccc(C(F)(F)F)c1 (centres undefined)	i
CCc1ccc2[nH]c(=O)c(CN(CCN(C)C)C(=S)NCCCN(C)C)cc2c1	i
CC1CCN(C(=O)C2CCCN(S(=O)(=O)c3ccc4nc(-c5ccccc5)[nH]c4c3)C2)CC1 (centres undefined)	i
CC[n+]1c(/C=C/c2ccc(F)cc2)ccc2ccccc21	i
O=C(Nc1ccc(-c2cn3cccnc3n2)cc1)c1ccccc1I	i
O=C1CC(c2ccccc2)CC2=C1C(c1cccc(Cl)c1Cl)Nc1ccccc1N2 (centres undefined)	i
COc1ccc(C2CC(c3c(-c4ccccc4)c4cc(Cl)ccc4[nH]c3=O)=NO2)cc1 (centres undefined)	i
CCCN1CCC(NC2CCCc3c2[nH]c2ccc([N+](=O)[O-])cc32)CC1 (centres undefined)	i
O=S(=O)(c1ccc(Br)s1)N1CCN(c2ccccc2)CC1	i
CCCCCCCC(=O)N1CCN(C(=O)C(NC(=O)Nc2ccc(Cl)cc2Cl)C(C)CC)CC1 (centres undefined)	i
CCOC(=O)c1c[nH]c2cc(OCC(C)C)c(OCC(C)C)cc2c1=O	i
CCC(C)NC(=O)c1nn(-c2cccc(OC)c2)c(=O)c2ccccc12 (centres undefined)	i
C/C(C=NNC(=O)c1ccco1)=C\c1ccccc1	i
Nc1c(C(=O)c2ccc(Br)cc2)sc2nc(-c3cccnc3)ccc12	i
Nc1nc(NCC2CCC(CNS(=O)(=O)c3cccc4ccccc34)CC2)nc2ccccc12 (centres undefined)	i
COc1ccc([C@@H]2Nc3ccc(C(C)=O)cc3[C@@H]3C=CC[C@@H]32)cc1[N+](=O)[O-]	i
O=[N+]([O-])c1ccc2nc(NC3CCCCC3)c(NC3CCCCC3)nc2c1	i
CCCC1(CCC)NC(=S)N(c2ccc(C)c(C)c2)N1	i
Cc1cc(NC(=O)C=Cc2ccccc2Cl)ccc1Br	i
CC(=O)N(C1=C(N(C)C)C(=O)c2ccccc2C1=O)c1cccc(Cl)c1	i
CCC(=O)N(C)CCCNc1ccnc2cc(Cl)ccc12	i
O=C1C2=C(Nc3ccccc3SC2c2ccc(OCc3ccccc3)cc2)c2ccccc21 (centres undefined)	0.058µM*
CC(C)(C)C1=NN(CC(=O)NCCc2cnc[nH]2)C(=O)c2cc3ccccc3n2C1	i
Cc1cccc(NC(c2ccccc2F)c2ccc3cccnc3c2O)n1 (centres undefined)	i
CN(CCCNc1ccnc2cc(Cl)ccc12)C(=O)c1ccc(Cl)c([N+](=O)[O-])c1	i
COc1ccc(-c2c[n+](CC(=O)O[C@H]3C[C@H](C)CC[C@@H]3C(C)C)c3n2CCCCC3)cc1	i
Cn1c(=O)[nH]c2c(c1=O)n(C)c(=O)n2C	i
COc1ccc2cc(C(C)=NO)ccc2c1	i
O=C(c1ccc([N+](=O)[O-])o1)N1CCN(c2cccc(Cl)c2)CC1	i
CCCOC(=O)C1=C(C)NC2=C(C(=O)CC(c3ccc(OC)cc3)C2)C1c1cccc(Cl)c1Cl (centres undefined)	i
CC1=C(C(=O)OC(C)C)C(c2ccc(F)cc2)C2=C(CC(c3ccc(Cl)cc3)CC2=O)N1 (centres undefined)	i
CCOC(=O)c1c(C)[n+](-c2ccc(C)cc2)c(CC)c2cc(OC)c(OC)cc12	i
CC(C)(c1ccc(Oc2ccc(NC(=O)c3ccccc3)cc2)cc1)c1cccc(Oc2ccc(NC(=O)c3ccccc3)cc2)c1	i
OC(CNc1cccc2ccccc12)Cn1c2ccccc2c2ccccc21 (centres undefined)	i
Clc1ccc(-c2csc3ncnc(NCc4ccncc4)c23)cc1	i
Cc1ccc(S(=O)(=O)NNC(=O)C2CCC(c3ccccc3)CC2)c2nsnc12 (centres undefined)	i
CCOCCCN(C(=O)C(F)(F)F)C(C(=O)NC1CCCCC1)c1ccncc1 (centres undefined)	i
Nc1nc(N)c2c(Oc3ccccc3)cccc2n1	i
CC(=C(Cl)Cl)/C(Br)=C(\Br)CO	i
Cc1ccc(NC(=O)CN2CCN(c3ccccn3)CC2)cc1F	i
CC(C)CN(CC(=O)Nc1cc(C(C)(C)C)nn1-c1ccccc1)C(=O)c1cc(Cl)cc(Cl)c1	i
O[C@H](c1cc(C(F)(F)F)nc2c(C(F)(F)F)cccc12)[C@@H]1CCCCN1	i
O=C(NCCN1CCCCC1)c1ccc(OC2CCN(CC3CCCCC3)CC2)c(Cl)c1	i
CC(C)N(CC(=O)Nc1cc(C(C)(C)C)nn1-c1ccc(Cl)cc1)C(=O)c1cccc2ccccc12	i
COc1ccc(NC2=C(c3ccc(C(F)(F)F)cc3)C(=O)c3ccccc32)cc1	i
O=[N+]([O-])c1cc(C(F)(F)F)ccc1N1CCCN(C(=S)Nc2ccccc2)CC1	2.23µM*
Cn1nc(C(F)(F)F)c(-c2ccc(Br)cc2)c1NC(=O)Nc1ccc(F)cc1F	i
COc1ccc(C2CC(=O)C3=C(C2)NC(C)=C(C(=O)OC(C)C)C3c2cccc(C)c2)cc1OC (centres undefined)	1.84µM*
O=C(CNC(=O)c1ccccc1)Oc1ccc(Cl)cc1	i
Cc1cccc(NC(=O)c2cc(Cl)nc3ccccc23)c1	i
COC(=O)c1ccc(N(C(=O)Cc2c[nH]c3ccccc23)C(C(=O)NC2CCCCC2)c2ccccc2F)cc1 (centres undefined)	i
O=C(NCCc1ccccc1)c1cnc(NCCCN2CCCC2)nc1Nc1ccccc1	i
CC1=C(C(=O)OC2CCCC2)C(c2ccc(Cl)cc2)C2=C(CC(c3ccc(Cl)cc3)CC2=O)N1 (centres undefined)	i
N=c1n(Cc2ccccc2)c2ccccc2n1CC(O)c1ccc(Cl)cc1 (centres undefined)	i
CC(=O)Nc1nc(C)c(-c2csc(Nc3ccc(Cl)cc3)n2)s1	i
CC(C)C(=O)NC(Nc1ccc([N+](=O)[O-])cc1)C(Cl)(Cl)Cl (centres undefined)	i
CC(=O)Nc1cc(C(F)(F)F)cc(C(F)(F)F)c1	i
O=C(COc1ccc(Cl)cc1)Nc1cccc(-c2nc3ncccc3o2)c1	i
Cc1ccc(-n2c(-c3ccccc3)cc(C=NNC(=O)c3cccc(O)c3)c2-c2ccccc2)cc1	0.0202µM*
CC(=O)N(C1=C(N2CCCCCC2)C(=O)c2ccccc2C1=O)C1CCCCC1	i

A second format for some results above.
CC1=C(C(=O)OC2CCCC2)C(c2ccc(Cl)cc2)C2=C(CC(c3ccc(Cl)cc3)CC2=O)N1 (centres undefined)
  liver stage = i

CC(C)CN(CC(=O)Nc1cc(C(C)(C)C)nn1-c1ccccc1)C(=O)c1cc(Cl)cc(Cl)c1
  liver stage = i

(cont.)
SMILES	liver stage
CCOC(=O)c1ccc(NCc2c(C)[nH]c3ccccc3c2=O)cc1	0.137µM*
CCOc1ccc(Nc2[nH]c(=O)sc2C2=c3cc(Br)ccc3=NC2=O)cc1	i
c1ccc(Nc2ccnc(Nc3ccccc3)n2)cc1	1.48µM*
CCc1cc2c3c(c1)C1(C(=O)N3C(C)(C)CC2C)C(C#N)=C(N)Oc2cc(C)oc(=O)c21 (centres undefined)	i
Cn1c(=NC(=O)c2ccc(S(=O)(=O)N3CCCCC3)cc2)sc2cc(Cl)ccc21	i
Cc1ccc(-c2cn(-c3ccccc3)c3[n+]2CCCS3)cc1	i
COC(=O)c1c(-c2c(F)cccc2Cl)noc1/C=C/Nc1ccccc1	i
CC(=O)N(C1=C(N(C)C)C(=O)c2ccccc2C1=O)c1cc(C)cc(C)c1	i
CCOc1cccc(Nc2c3c(nc4ncnn24)CCC3)c1	i
CCOC(=O)c1c[nH]c2ccc(OC)cc2c1=O	0.135µM*
COc1ccc(OC)c(C2CC(=O)C3=C(C2)NC(=O)CC3c2ccc(OC)c(OC)c2)c1 (centres undefined)	i
CCOc1ccc2ncc(S(=O)(=O)c3ccc(OC)cc3)c(N3CCN(C)CC3)c2c1	0.0107µM*
Fc1ccc(N2CCN(c3ncnc4c3cnn4-c3ccccc3)CC2)cc1	i
CC(C)c1cccc(C(C)C)c1NC(=O)N(Cc1ccccc1)C(C)c1nc2ccccc2c(=O)n1-c1ccccc1 (centres undefined)	i
O=C(COC(c1ccccc1)c1c(Cl)cncc1Cl)N1CCC(c2ccccn2)C1 (centres undefined)	i
